Screening data (PubChem)
GALR2 agonist – GALR2 receptor agonists, primary screen, cell-based. AID 803, 2007. activation, %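 (tested at 5 µM)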. actives 0.48% (n = 140,000). GALR2-expressing cells, agonist activation read-out. Galanin receptor type 2 (Homo sapiens), O43603;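 active means above mean plus 3 SD of all compounds, about 5% in these data, not always enough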;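 further: 0% = vehicle buffer wells and 100% = reference agonist at full effect; tested in CHO reporter cells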
Target sequence (O43603 whole entry, looked up): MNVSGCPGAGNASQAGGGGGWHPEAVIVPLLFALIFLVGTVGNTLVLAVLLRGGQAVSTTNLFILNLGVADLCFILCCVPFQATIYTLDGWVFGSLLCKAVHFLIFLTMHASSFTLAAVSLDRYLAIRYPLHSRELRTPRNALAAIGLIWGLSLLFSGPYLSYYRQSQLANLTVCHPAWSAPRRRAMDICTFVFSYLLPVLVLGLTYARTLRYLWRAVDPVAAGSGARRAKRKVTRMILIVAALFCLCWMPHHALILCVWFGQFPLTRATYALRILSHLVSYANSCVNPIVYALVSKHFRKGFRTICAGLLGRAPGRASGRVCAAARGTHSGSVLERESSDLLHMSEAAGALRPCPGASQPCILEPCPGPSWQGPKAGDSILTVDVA
HSV augment – enhancers of HSV replication in host cells, fold increase, host cell viability; AID 1956, 2009; actives 0.005% (n = 220,000); HSV replication augmentation in cells; maximum fold increase;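 active means peak rise of 1.5-fold or more in the series; tested in PC3 cells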;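 further: first round at 10 µM; read as green reporter fluorescence; hits show the peak of a series up to 25 µM; 1 = signal of infected wells without compound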
RGS16-Gao – modulators of RGS16 binding to Galphao, primary screen, biochemical, human proteins, multiplexed bead flow cytometry. bead-based flow cytometry RGS16-Galphao binding, fluorescence; actives lie on both sides. AID 1441, 2008. binding response (% of control), % at 10 µM. Regulator of G-protein signaling 16 (Homo sapiens) + Guanine nucleotide-binding protein …. actives 0.38% (n = 220,000);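 active means below 25% or above 175%, edge rows of some plates excepted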;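 further: Galphao activated by GDP with aluminum fluoride before binding; 100% = wells without compound and 0% = beads without RGS; some results beyond the cut were filed as inactive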
Target sequence (O15492 whole entry, looked up): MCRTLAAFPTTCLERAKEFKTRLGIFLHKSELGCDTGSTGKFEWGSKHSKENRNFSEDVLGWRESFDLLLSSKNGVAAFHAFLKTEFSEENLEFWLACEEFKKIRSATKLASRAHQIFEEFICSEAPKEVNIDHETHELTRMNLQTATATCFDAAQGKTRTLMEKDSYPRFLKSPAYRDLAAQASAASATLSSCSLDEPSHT
Target sequence (P09471 whole entry, looked up): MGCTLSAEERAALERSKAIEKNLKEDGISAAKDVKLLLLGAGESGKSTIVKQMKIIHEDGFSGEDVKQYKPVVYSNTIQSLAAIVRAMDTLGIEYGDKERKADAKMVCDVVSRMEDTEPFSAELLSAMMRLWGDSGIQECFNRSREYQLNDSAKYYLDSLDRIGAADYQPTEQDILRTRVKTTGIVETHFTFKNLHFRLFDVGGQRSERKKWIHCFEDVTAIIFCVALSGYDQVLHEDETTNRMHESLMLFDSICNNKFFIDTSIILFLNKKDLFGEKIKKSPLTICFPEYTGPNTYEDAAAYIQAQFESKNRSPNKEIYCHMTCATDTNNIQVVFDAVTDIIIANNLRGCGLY
Insulin prom inh – inhibitors of insulin promoter-driven GFP, primary screen, imaging, TRM-6 cells (human fetal islet line), eGFP reporter, cell count; actives 0.9% (n = 130,000); reporter expression induced with tamoxifen; inhibition, % at 2 µM;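 active means inhibition above the mean plus 3 SD, with well images judged a real hit on visual review, cut at about 60% in these data, passing the limit was not always enough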
PKD1 kinase inh – inhibitors of human PKD1 kinase, biochemical, fluorescence polarization | Serine/threonine-protein kinase D1 (Homo sapiens), Q15139 | PKD1 kinase fluorescence polarization assay | inhibition, %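 (about 10 µM by stock and volumes)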 | actives 0.056% (n = 200,000);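 active means inhibition of 50% or more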;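 further: controls were vehicle for no effect and a reference inhibitor for full effect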
Insulin prom inh cell count – also measured in Insulin prom inh; calls as there; normalized cell count, %; measured here: cell count, toxicity; reference of the scale not given here;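 cells exposed to compound for 48 h; stained nuclei by imaging scaled within each plate; lower means fewer cells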
HSV augment primary fold – also measured in HSV augment; calls as there; fold increase; compound at 10 µM; measured here: primary screen fold increase 10 uM; tested in PC3 cells;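 GFP signal in the first replicate; 1 = infected wells without compound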
* marks the source's active call; other numbers are inactive results; i = inactive; x = no result given.

SMILES	GALR2 agonist	HSV augment	HSV augment primary fold	RGS16-Gao	Insulin prom inh	Insulin prom inh cell count	PKD1 kinase inh
COc1ccc(-c2nc3n(c(=O)c2C#N)CCCS3)cc1	-2.8	i	0.93	92.3	-17.1	109.3	-2.3
COc1ccc(C(=O)CCN2CCN(c3ccccc3OC)CC2)cc1	x	i	1	104.9	x	x	-5.3
COc1ccccc1[C@@H]1C(c2ccc(F)cc2)=NN(c2ccccc2)[C@H]1C(=O)N1CCOC1=O	0.3	i	0.75	97.3	27.3	86.0	-8.3
Cc1nc2c(=O)n(C)c(=O)[nH]c2n1Cc1ccccc1	-2.9	i	1	100.1	64.3	52.1	-3.8
O=C(Nc1cnc2sccn2c1=O)c1ccc(Cl)cc1Cl	-0.6	i	0.65	78.4	-56.4	113.8	-2.3
O=C(CS(=O)(=O)c1cn(Cc2ccc(F)cc2)c2ccccc12)N1CCOCC1	x	i	1	116.8	x	x	-6.8
CN(C)S(=O)(=O)c1ccc(C(=O)NCCOc2ccccc2)cc1	-1.7	i	0.88	101.2	37.1	156.1	-1.0
CCCCNC(=O)CCC(=O)Nc1ccc2nc(N3CCC(C)CC3)cc(C)c2c1	x	i	0.99	93.7	x	x	-5.6
NC(=O)c1ccc(-n2nnnc2SCC(=O)Nc2ccccc2-c2ccccc2)cc1	-0.9	i	1.15	95.8	-25.0	87.1	3.0
Cn1c(SCC(=O)NC2CCCCC2)nnc1-c1cc2ccccc2o1	0.1	i	1.01	96.7	-10.7	109.4	-0.3
Cc1cc(-c2ccccc2)cc(-c2ccccc2)[n+]1C	x	i	0.92	109.1	x	x	4.5
CC(C)(C)c1ccc(OCCC(=O)Nc2cccc(S(=O)(=O)N3CCCCC3)c2)cc1	-0.5	i	0.76	53.4	-46.1	75.8	0.2
CC(C)N(CCNC(=O)C1CCC(=O)N1Cc1ccc(F)cc1)Cc1ccccc1 (stereo unspecified)	0.2	i	0.987	101.8	x	x	12.1
COc1ccc(NC(=O)C2=Cc3cccc(OC)c3OC2)cc1	x	i	0.94	99.8	2.3	98.1	2.6
OC(COc1ccccc1Cl)CN1CCN(CC(O)COc2ccccc2Cl)CC1 (stereo unspecified)	0.1	i	0.83	101.2	x	x	-1.5
O=C(CSc1nc2ccccc2s1)Nc1ccc2c(c1)oc1ccccc12	-0.7	i	0.91	103.3	48.1	150.4	4.9
CC(=O)NCC(=O)OCc1ccc([N+](=O)[O-])cc1	-0.8	i	1.04	105.8	58.6	142.0	7.5
CCCN(Cc1ccccc1)C(=S)NC(=O)c1ccccc1[N+](=O)[O-]	x	i	0.92	101.2	x	x	-9.8
Cc1cc[n+](-c2nc([O-])n(-c3ccccc3)c2C=O)cc1	-3.2	x	x	x	63.2	112.1	-3.3
O=C(Nc1ccccc1N1CCOCC1)c1ccc(N2CCOCC2)c([N+](=O)[O-])c1	x	i	1.03	104.6	52.9	95.6	-4.7
CCCCOc1cccc(NC(=O)CSc2nncn2C)c1	0.0	i	0.96	97.5	-93.1	53.9	4.6
CC(=O)Nc1ccc(N2CCOCC2)c(Cl)c1	x	i	0.97	112.8	x	x	5.8
COc1ccc(CCCc2nnc(SCC(=O)NN)o2)cc1	x	i	0.9	93.3	x	x	-1.2
O=C(NCCCN1CCCC1)c1ccc2c(c1)N(Cc1ccccc1)CCS2	x	i	0.93	103.5	x	x	x
CC(C)C(NC(=O)C1CCCCC1)C(=O)NC1CCN(Cc2ccccc2)CC1 (stereo unspecified)	-1.2	i	1.06	113.1	-100.0	87.3	6.7
CCOC(=O)CNC(=O)N1CCCC(CNS(=O)(=O)c2cccs2)C1 (stereo unspecified)	x	i	0.95	96.4	x	x	3.0
CCN1C(=O)/C(=C\c2nc3ccccc3c(=O)n2-c2ccccc2)c2ccccc21	2.2	i	0.66	102.4	-8.3	111.4	10.3
O=C(NCc1ccc2c(c1)OCO2)C1CCCN(C(=O)c2ccc(Cl)cc2)C1 (stereo unspecified)	-2.9	i	0.65	102.0	-23.3	96.0	3.0
O=C(O)Cn1nnn(-c2ccccc2)c1=S	0.6	i	0.84	101.4	-10.5	151.7	-4.9
Cc1cc(N=Cc2cc(Br)ccc2O)no1	1.1	i	1.09	102.3	-17.9	112.2	-3.7
Cc1ccccc1NC(=O)Cn1nnc(-c2ccc(N3CCOCC3)cc2)n1	-0.2	i	0.97	92.0	0.0	34.6	-3.8
COC(=O)c1ccc(S(=O)(=O)N2CCC(O)CC2)n1C	x	i	0.96	100.8	x	x	x
COc1ccccc1CNC(=O)CCNS(=O)(=O)c1cccc2nsnc12	-2.1	i	1.23	100.0	35.5	105.2	-4.3
Cc1c(NC(=O)CN2CCCc3ccccc32)c(=O)n(-c2ccccc2)n1C	-0.2	i	1.02	88.6	0.0	163.3	-2.5
COc1ccc(Cc2nc3c4c(ncn3n2)Oc2ccc3ccccc3c2C4c2ccc(OC)c(OC)c2)cc1 (stereo unspecified)	0.7	i	1.04	101.6	x	x	0.4
COc1ccc(-n2c(SCC(=O)N3CCCCC3)nc(O)cc2=O)cc1	-1.1	i	0.86	117.1	-108.3	153.3	30.7
CSc1nnc([C@H](C)NC(=O)OC(C)(C)C)o1	-2.0	i	0.94	102.8	x	x	-2.0
Cc1cc(C)c(C(=O)CSC2=NC(N)=C(C#N)C3(CCCCC3)C2C(N)=O)cc1C (stereo unspecified)	0.3	i	0.73	104.7	-10.0	128.8	-2.5
CCC(=O)Nc1ccc(NC(=S)NC(=O)c2cc3ccccc3o2)cc1	0.8	i	0.92	116.8	9.7	91.0	-10.6
O=C(CSc1nc2ccccc2o1)Nc1nncs1	-1.1	i	0.92	51.7	x	x	4.3

A second format for some results above:
The line under a structure holds: GALR2 agonist	HSV augment	HSV augment primary fold	RGS16-Gao	Insulin prom inh	Insulin prom inh cell count	PKD1 kinase inh
CC(=O)Nc1ccc(N2CCOCC2)c(Cl)c1
 : x	i	0.97	112.8	x	x	5.8
COc1ccc(CCCc2nnc(SCC(=O)NN)o2)cc1
 : x	i	0.9	93.3	x	x	-1.2
O=C(NCCCN1CCCC1)c1ccc2c(c1)N(Cc1ccccc1)CCS2
 : x	i	0.93	103.5	x	x	x
CC(C)C(NC(=O)C1CCCCC1)C(=O)NC1CCN(Cc2ccccc2)CC1 (stereo unspecified)
 : -1.2	i	1.06	113.1	-100.0	87.3	6.7
CCOC(=O)CNC(=O)N1CCCC(CNS(=O)(=O)c2cccs2)C1 (stereo unspecified)
 : x	i	0.95	96.4	x	x	3.0
CCN1C(=O)/C(=C\c2nc3ccccc3c(=O)n2-c2ccccc2)c2ccccc21
 : 2.2	i	0.66	102.4	-8.3	111.4	10.3
O=C(NCc1ccc2c(c1)OCO2)C1CCCN(C(=O)c2ccc(Cl)cc2)C1 (stereo unspecified)
 : -2.9	i	0.65	102.0	-23.3	96.0	3.0
O=C(O)Cn1nnn(-c2ccccc2)c1=S
 : 0.6	i	0.84	101.4	-10.5	151.7	-4.9
Cc1cc(N=Cc2cc(Br)ccc2O)no1
 : 1.1	i	1.09	102.3	-17.9	112.2	-3.7
Cc1ccccc1NC(=O)Cn1nnc(-c2ccc(N3CCOCC3)cc2)n1
 : -0.2	i	0.97	92.0	0.0	34.6	-3.8
COC(=O)c1ccc(S(=O)(=O)N2CCC(O)CC2)n1C
 : x	i	0.96	100.8	x	x	x
COc1ccccc1CNC(=O)CCNS(=O)(=O)c1cccc2nsnc12
 : -2.1	i	1.23	100.0	35.5	105.2	-4.3
Cc1c(NC(=O)CN2CCCc3ccccc32)c(=O)n(-c2ccccc2)n1C
 : -0.2	i	1.02	88.6	0.0	163.3	-2.5
COc1ccc(Cc2nc3c4c(ncn3n2)Oc2ccc3ccccc3c2C4c2ccc(OC)c(OC)c2)cc1 (stereo unspecified)
 : 0.7	i	1.04	101.6	x	x	0.4
COc1ccc(-n2c(SCC(=O)N3CCCCC3)nc(O)cc2=O)cc1
 : -1.1	i	0.86	117.1	-108.3	153.3	30.7
CSc1nnc([C@H](C)NC(=O)OC(C)(C)C)o1
 : -2.0	i	0.94	102.8	x	x	-2.0
Cc1cc(C)c(C(=O)CSC2=NC(N)=C(C#N)C3(CCCCC3)C2C(N)=O)cc1C (stereo unspecified)
 : 0.3	i	0.73	104.7	-10.0	128.8	-2.5
CCC(=O)Nc1ccc(NC(=S)NC(=O)c2cc3ccccc3o2)cc1
 : 0.8	i	0.92	116.8	9.7	91.0	-10.6

Three compounds out of the list, sorted by length of the SMILES, falling.
SMILES	GALR2 agonist	HSV augment	HSV augment primary fold	RGS16-Gao	Insulin prom inh	Insulin prom inh cell count	PKD1 kinase inh
O=C(CSc1nc2ccccc2s1)Nc1ccc2c(c1)oc1ccccc12	-0.7	i	0.91	103.3	48.1	150.4	4.9
Cc1nc2c(=O)n(C)c(=O)[nH]c2n1Cc1ccccc1	-2.9	i	1	100.1	64.3	52.1	-3.8
Cc1cc(-c2ccccc2)cc(-c2ccccc2)[n+]1C	x	i	0.92	109.1	x	x	4.5

Next compounds:
SMILES	GALR2 agonist	HSV augment	HSV augment primary fold	RGS16-Gao	Insulin prom inh	Insulin prom inh cell count	PKD1 kinase inh
O=S(=O)(NCCSc1ccccc1)c1cccs1	-2.5	i	0.75	79.2	-35.0	107.2	-8.1
Cc1ccccc1C(=O)Nc1nc2n(n1)C(c1ccccc1)CC(=O)N2 (stereo unspecified)	0.9	i	0.92	98.3	13.8	131.4	4.0
CCN(CC)CCCN(C(=O)Cn1nnc(-c2ccc(OC)c(OC)c2)n1)C(C(=O)NC(C)(C)C)c1ccc(F)cc1 (stereo unspecified)	x	i	0.87	106.7	19.1	137.7	-11.2
O=C(CSc1nnc2n1CCCN2)c1ccc([N+](=O)[O-])cc1	x	i	1.03	103.8	x	x	x
CCCCc1nc2ccccc2c(N)c1CCC (tested in a mixture with another compound)	-0.9	i	0.83	107.3	61.9	135.7	-3.1
CCN(CC)S(=O)(=O)c1ccc(OC)c(NS(=O)(=O)c2cccc(C(=O)O)c2)c1	x	i	0.96	99.5	x	x	-2.1
C/C(=N\NC(=O)CNc1ccccc1)c1ccccc1	x	i	1.11	62.1	x	x	-2.8
Cc1c(N)cc(N)cc1C(=O)O	x	i	1.11	104.5	x	x	x
O=C(N/C(=N\O)c1ccccc1)Nc1ccc(Cl)cc1	-1.2	i	0.94	101.0	-458.6	68.1	-0.9
CC1=C/C(=N\OS(=O)(=O)c2ccccc2)C(C)=CC1=O	-3.3	i	0.943	90.9	-170.3	2.7	1.5
CCOC(=O)CSc1nnc(Cc2ccccc2)n1Cc1ccco1	-1.5	i	1.06	124.0	25.7	142.3	10.1
CCN(CC)S(=O)(=O)c1ccc(NC(=O)CN(c2cccc(C)c2)S(C)(=O)=O)cc1	-2.9	i	1.03	105.2	72.2	112.4	2.3
COc1ccc2c(c1)c(C(=O)CN1CCC(C(N)=O)CC1)c(C)n2C	0.4	i	0.92	99.0	-18.6	152.3	-0.2
Cc1c(/C=N\NC(=O)C2COc3ccccc3O2)c2ccccc2n1C (stereo unspecified)	2.6	i	0.84	106.3	x	x	3.2
COC(=O)[C@H](Cc1ccccc1)NC(=O)N1CCCCC1C (stereo partly specified)	-0.1	i	0.67	103.4	x	x	1.3
CC(C)(C)C(=O)/C=C1\NC(=O)CS1	x	i	0.97	96.0	x	x	-2.1
COc1ccccc1N1CCN(C(=O)/C=C/c2ccc(C)cc2)CC1	-1.0	i	0.9	89.5	-8.1	104.5	-9.2
Cc1cc2nccc(-c3ccccn3)n2n1	x	i	0.97	100.7	63.6	90.2	3.9
Cc1cc(C)n(-c2ccc(C(=O)Nc3ccc(N4CCOCC4)cc3)cc2)n1	0.0	i	0.97	105.8	x	x	-3.5
O=C(CSc1nnnn1-c1cccc2c1CCCC2)N1CCCC1	-0.8	i	0.877	104.3	-5.6	10.6	-8.6
Cc1ccc(C(=O)NC(NC(=O)c2ccc(C)cc2)C(Cl)Cl)cc1	-0.5	i	1.07	85.4	-6.8	103.7	-6.4
CN(C)CCNC(=O)c1ccccc1	-5.5	i	0.88	105.7	25.0	101.7	-4.1
COc1cc(CNC(=O)c2ccc(Cn3nc(C)c(Cl)c3C)o2)cc(OC)c1	-2.9	i	0.94	76.2	-56.2	86.4	-10.8
COc1cc(C)c(S(=O)(=O)NCc2cccs2)cc1C	-4.6	x	x	90.2	-412.5	32.7	-3.4
